Mtb growth = M. tuberculosis H37Rv growth inhibitors, H37Rv strain (AID 1626); hit rate 0.95% among 220,000; inhibition, % at 10 µM; hits with a dose series show IC50 in µM; M. tuberculosis H37Rv growth inhibition; higher % means a stronger effect;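 active = confirmed in a dose series; inconclusive = inhibition above 80% but not taken into the dose series; inactive = below 80% or under 30% at every dose of the series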;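 also: bacteria incubated seven days before Alamar blue readout; 0% = bacteria only wells and 100% = bacteria with antibiotic wells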
Arbovirus inh = antivirals against arbovirus infection, primary screen, cell-based, full library, 10K replicate subset; inhibition, % at 10 µM; hit rate 0.37% among 200,000; arbovirus infection cell-based antiviral screen;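 active = inhibition from about 30%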;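 also: bluetongue infection of BSR cells; cell survival read as ATP light after 72 h; 0% = infected wells without compound and 100% = uninfected wells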
RecA intein inh = Mtb RecA intein splicing inhibitors, primary screen, biochemical, fluorescence, HTS; Protein RecA (Mycobacterium tuberculosis (strain ATCC 25618 / H37Rv)), P9WHJ3; inhibition, %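 (about 9 µM by stock and volumes)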; AID 2221, 2009; hit rate 0.75% among 290,000; cell-free RecA intein splicing; in the data active = inhibition above about 30%; inconclusive = no clear call, values can overlap the other calls;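 also: 0% = vehicle wells and 100% = reference inhibitor control wells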
Target sequence (P9WHJ3 whole entry, looked up): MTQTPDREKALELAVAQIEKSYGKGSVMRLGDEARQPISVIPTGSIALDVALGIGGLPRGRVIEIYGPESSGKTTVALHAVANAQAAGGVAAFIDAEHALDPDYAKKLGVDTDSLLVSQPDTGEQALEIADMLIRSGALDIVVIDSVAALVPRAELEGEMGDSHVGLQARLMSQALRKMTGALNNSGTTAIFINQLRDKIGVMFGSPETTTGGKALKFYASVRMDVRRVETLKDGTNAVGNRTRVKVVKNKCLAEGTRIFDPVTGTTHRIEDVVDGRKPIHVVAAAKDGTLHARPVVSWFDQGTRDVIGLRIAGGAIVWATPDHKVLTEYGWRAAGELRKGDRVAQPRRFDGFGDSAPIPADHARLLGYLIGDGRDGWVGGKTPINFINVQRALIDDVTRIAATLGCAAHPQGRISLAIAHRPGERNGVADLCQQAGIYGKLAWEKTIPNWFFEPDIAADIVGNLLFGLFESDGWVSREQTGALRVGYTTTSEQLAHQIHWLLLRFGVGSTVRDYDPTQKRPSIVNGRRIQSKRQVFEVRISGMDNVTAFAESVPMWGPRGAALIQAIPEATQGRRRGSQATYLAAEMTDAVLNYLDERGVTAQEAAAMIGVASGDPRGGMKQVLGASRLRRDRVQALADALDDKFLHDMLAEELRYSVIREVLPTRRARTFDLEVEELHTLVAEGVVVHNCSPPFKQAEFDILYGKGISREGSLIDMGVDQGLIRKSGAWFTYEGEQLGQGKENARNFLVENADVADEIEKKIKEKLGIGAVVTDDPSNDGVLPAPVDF
Mtb bLac sens = beta-lactam sensitization of Mtb H37Rv, H37Rv | M. tuberculosis H37Rv growth with meropenem, percent inhibition; hits of this screen are not shown here | inhibition, % at 25 µM | hit rate 0.27% among 330,000;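 active = about 74% or more and at least 40 points above the plate without the antibiotic, then above 30% in a dose series; inconclusive = first-round hits that could not be retested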;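 also: growth measured after seven days incubation then overnight dye step; 0% = bacteria only wells and 100% = bacteria with antibiotic; twin plates without the antibiotic show which effects depend on it; some results filed as inactive read as strong as hits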
YopH inh = YopH tyrosine phosphatase inhibitors, primary screen, biochemical, fluorescence Ex485/Em525; YopH tyrosine phosphatase [Yersinia enterocolitica]; inhibition, %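 (about 10 µM by stock and volumes)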; hit rate 0.16% among 140,000; AID 898, 2007;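 active = inhibition of 50% or more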;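 also: controls were vehicle for no effect and minimum signal wells for full effect; inactives centre near -20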
Arbovirus inh repeat = also measured in Arbovirus inh; calls as there; inhibition, %; measured here: 10K subset replicate screen; many hits read low in the repeat;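 first of two repeat runs on a subset; 0% = infected and 100% = uninfected wells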
* marks the source's active call; other numbers are inactive results; ? = inconclusive; . = not tested or not shown. Only part of the results is shown (hit frequency here may not be typical).

SMILES | Mtb growth | Arbovirus inh | RecA intein inh | Mtb bLac sens | YopH inh | others
COc1ccc(C2=NC(=O)NC2c2ccc(OC)cc2)cc1 (configuration not stated) | -5% | . | -1.1 | 6 | .
COc1ccc(-n2c(O)c(/C=C/C=Nc3ccccc3)c(=O)[nH]c2=O)cc1 | -1% | -1 | 1.9 | -2 | -8
CCOc1ccc(C(C)NC(=O)Cc2ccccc2F)cc1OCC (configuration not stated) | 4% | 0 | -1.0 | -16 | .
COc1cccc(Oc2ccc(OC)cc2C(=O)O)c1 | -6% | . | 0.4 | -5 | .
COc1ccc(Br)cc1/C=C/C(=O)NC(=S)Nc1ccc(CN2CCOCC2)cc1 | . | . | -1.7 | -2 | .
Cc1cc(C(=O)OCC(=O)NC2CCS(=O)(=O)C2)c2ccccc2n1 (configuration not stated) | 5% | 1 | -2.0 | 3 | .
COc1ccc(OC)c2c(C)cc(NCCN3CCOCC3)nc12 | -9% | 3 | 0.7 | -13 | -49 | Arbovirus inh repeat=12
CCN(C(=O)Cn1nc(C)c([N+](=O)[O-])c1C)c1c(N)n(Cc2ccccc2)c(=O)[nH]c1=O | . | . | -1.3 | 6 | .
CC(C)CC(=O)Nc1cc2c3c(c1)C(C)C(=O)N3CCC2 (configuration not stated) | . | . | 0.9 | 1 | .
CCOc1cc(-c2nc3cc(C)ccn3c2NCC2CCCO2)ccc1O (configuration not stated) | -5% | 5 | -13 | -4 | 21
O=[N+]([O-])c1ccccc1Sc1nccn1Cc1ccccc1 | 8% | 2 | 3.0 | -4 | -35
CCSc1ccccc1C(=O)Nc1cc(OC)c(OC)c(OC)c1 | 0% | 0 | 0.5 | 1 | .
COc1ccc(C(=O)C2CN(C)CC2c2ccc(Cl)cc2)cc1 (configuration not stated) | 16% | -5 | -2.0 | 3 | .
Cc1occc1C(=O)N/N=C/c1ccc2c(c1)OCO2 | -9% | . | 4.9 | -6 | .
CN1CCN(Cc2c(O)ccc3cc(Br)ccc23)CC1 | 21% | 20 | -2.1 | -3 | .
Cc1ccc(OCCNCC(O)COc2ccccc2)cc1 (configuration not stated) | . | . | 0.4 | -2 | .
COC(=O)COc1ccc(S(=O)(=O)N2CCCCC2)cc1[N+](=O)[O-] | 5% | 7 | -2.4 | -4 | .
O=C(NNC(=O)c1ccc2c(=O)n3c(nc2c1)CCC3)c1ccc(F)cc1 | . | . | 0.3 | -15 | .
CC(/C=C/c1ccccc1)=N\NC(=O)c1cc(C)[nH]n1 | 1% | -7 | 0.2 | -3 | .
CCc1nnc(NS(=O)(=O)c2ccc(N/C=C\C(=O)c3ccc(F)cc3)cc2)s1 | -4% | 16 | -3.8 | 65 | .
COc1ccc(Nc2oc(-c3ccc(F)cc3)nc2C#N)cc1 | -6% | . | -1.0 | -4 | .
CC(=O)COc1cccc2ccc(/C=C/c3ccc(Br)s3)nc12 | . | . | -0.8 | 42 | .
Nc1c(-c2ccccc2)cnc2ncnn12 | -1% | 3 | -3.3 | 8 | -22
CN(C)CCN(C)Cc1ccccc1Sc1cccc2ccccc12 | 41% | -40 | 6.4 | 34 | -16
O=C(CCN1CCOCC1)NCc1ccccc1 | . | . | 0.6 | 78 | .
O=C(NC1CCN(S(=O)(=O)c2ccc(F)cc2)CC1)c1ccco1 | . | . | 4.7 | -3 | .
CCN(C(=O)CSc1ccc2ccccc2c1)C1CCS(=O)(=O)C1 (configuration not stated) | 7% | -6 | 1.2 | 1 | -7
O=C(Nc1ccccc1C(=O)NCCCN1CCOCC1)c1cccc([N+](=O)[O-])c1 | . | . | 0.9 | 8 | .
CCOC(=O)c1c(C)[nH]c(C(=O)NNC(=O)c2ccc(C(C)(C)C)cc2)c1C | 12% | 0 | 1.2 | 47 | -12
COc1ccccc1CNC(=O)CCc1c(C)nc2cc(-c3ccccc3OC)nn2c1C | . | . | 1.5 | 5 | .
COc1ccc(N=Cc2ccc(CNS(=O)(=O)c3ccc(Cl)cc3)o2)cc1 | ? | -13 | -0.1 | 100 | -37
COC(=O)c1ccccc1N=Nc1c(C)n[nH]c1C | -7% | . | 0.1 | -7 | .
C=CCNc1nc(N2CCOCC2)c(C#N)c2c1CN(C)CC2 | -8% | 4 | -18 | -12 | -29
O=C(CN1CCCCCC1)Nc1ccc(F)c(F)c1 | 1% | -7 | 1.0 | -11 | -2
Cc1cc(=O)[nH]c2ccc(S(=O)(=O)NC3CCCCC3)cc12 | . | . | -2.6 | -13 | .
Cc1cc(Cl)ccc1NC(=S)N1CCN(C(=O)C2CCCO2)CC1 (configuration not stated) | 1% | 1 | 1.1 | 7 | -35
Cc1cccc(NC(=O)NNC(=O)c2cc3occc3[nH]2)c1C | . | . | 0.2 | -4 | .
Cc1cccc(OCC(=O)Nc2cc(NC(=O)COc3cccc(C)c3C)cc(C(=O)O)c2)c1C | . | . | 1.8 | 4 | .
Cc1ccsc1C(=O)N/N=C/C=C/c1ccccc1[N+](=O)[O-] | 9% | -25 | -3.9 | 68 | -14
O=C(CCCCCNC(=S)Nc1ccc(Cl)cc1)C[N+](=O)[O-] | -1% | -16 | 4.2 | -2 | .

Looked up one by one from the entries so far, four records:
SMILES | Mtb growth | Arbovirus inh | RecA intein inh | Mtb bLac sens | YopH inh | others
O=C(CN1CCCCCC1)Nc1ccc(F)c(F)c1 | 1% | -7 | 1.0 | -11 | -2
CCOC(=O)c1c(C)[nH]c(C(=O)NNC(=O)c2ccc(C(C)(C)C)cc2)c1C | 12% | 0 | 1.2 | 47 | -12
COc1ccc(Nc2oc(-c3ccc(F)cc3)nc2C#N)cc1 | -6% | . | -1.0 | -4 | .
Cc1cc(Cl)ccc1NC(=S)N1CCN(C(=O)C2CCCO2)CC1 (configuration not stated) | 1% | 1 | 1.1 | 7 | -35

Next records follow:
SMILES | Mtb growth | Arbovirus inh | RecA intein inh | Mtb bLac sens | YopH inh | others
CCOC(=O)c1c(C)[nH]c(C(=O)COC(=O)C(C)N2C(=O)C3CCCCC3C2=O)c1C (configuration not stated) | -2% | 0 | -0.3 | -17 | -38
CCN(C(=O)c1ccc(Cl)c([N+](=O)[O-])c1)c1ccccc1 | -2% | 2 | . | -2 | .
c1ccc(-n2nnnc2-c2cccnc2)cc1 | 3% | 15 | 1.5 | 5 | .
O=C(COc1cc2oc(=O)c3c(c2cc1Cl)CCCC3)NCc1cccnc1 | . | . | 1.0 | -1 | .
Cc1nc(N)nc(Nc2ccc(Cl)cc2)c1Br | 5% | 9 | 0.8 | 14 | -26
COc1cc(NC(=O)CNC(=O)Cn2c(C)cc3ccccc3c2=O)cc(OC)c1OC | . | . | 4.1 | -6 | .
Cc1ccc(C)c(NC(=S)c2ccc3ccccc3n2)c1 | 12% | 7 | 0.1 | 47 | -19
Cc1ncc(CN=Cc2ccc(Cl)cc2)c(N)n1 | -6% | . | 1.7 | 0 | .
CCOC(=O)Cc1csc(NC(=O)Cc2ccc(C)cc2)n1 | 2% | 21 | 1.0 | -2 | .
CCn1cc(C(=O)O)c(=O)c2cc(F)c(N/N=C/c3ccccc3[N+](=O)[O-])cc21 | 13% | -3 | -0.8 | 3 | 11
Nc1ccccc1SCC1CSc2nc3ccccc3c(=O)n21 (configuration not stated) | -3% | 7 | -3.0 | 5 | .
O=C(Cc1cccc2ccccc12)NC(=S)Nc1cccc(C(=O)O)c1 | 0% | 11 | 2.7 | -1 | .
FC(F)C(F)(F)c1cc(-c2ccccc2)n[nH]1 | 6% | . | -0.1 | -3 | .
Cc1ccccc1CN1CCN(C(=O)Cc2ccccc2)CC1 | -4% | -1 | 0.2 | -1 | .
COC(=O)c1ccc(NC(=O)C2CCCO2)cc1 (configuration not stated) | -10% | -3 | 4.9 | 14 | -30
COc1ccc(CSc2nncn2C)cc1[N+](=O)[O-] | -2% | 2 | -0.4 | -8 | -21
CC(NC(=O)c1ccccc1)C(=O)N/N=C/c1ccc(O)cc1 (configuration not stated) | 6% | 16 | -2.4 | 4 | .
C=CCNC(=O)c1cc(Cl)cc(Cl)c1 | 4% | -6 | 1.7 | 2 | .
Cc1cccc(NC(=O)/C=C/c2ccc(Cl)cc2)n1 | 6% | -22 | 8.2 | 92 | -13
CCOc1cc(C(=O)OCC(=O)NCc2ccco2)cc(OCC)c1OCC | -1% | 1 | -0.8 | 0 | -37
O=C1NC(c2ccccc2)=NC1(NS(=O)(=O)c1ccccc1)C(F)(F)F (configuration not stated) | -11% | 3 | -9.4 | -1 | -30
O=C(NCC(c1cccnc1)N1CCN(c2ccccc2F)CC1)c1ccco1 (configuration not stated) | 4% | 7 | 2.7 | -3 | -14
COc1ccc2[nH]cc(C(=O)CN(C)CCc3ccc(OC)c(OC)c3)c2c1 | -6% | -3 | . | 0 | -11
O=C(O)C(Cc1ccccc1)N1C(=O)/C(=C/c2ccccc2)SC1=S (configuration not stated) | -2% | 2 | 11 | -1 | -31
O=C(NCCS(=O)(=O)N1CCN(c2ccccc2)CC1)C1CC1 | . | . | 5.4 | -6 | .
CCCS(=O)(=O)N1CCN=C1SCc1cccc(C)c1 | 5% | 0 | 0.1 | 2 | .
N#C/C(=C\c1cccnc1)C(=O)Nc1ccccc1[N+](=O)[O-] | . | . | 9.6 | -5 | .
CCOC(=O)CN1C(=O)N[C@@H](c2ccc(Br)cc2)C(C(=O)OC)=C1C | 5% | . | -0.2 | -6 | .
N#Cc1c(-c2ccccc2)c(-c2ccccc2)nn(CC(=O)NNC(=O)Nc2ccc(Cl)cc2)c1=O | . | . | 1.7 | -9 | .
CCN(CC)S(=O)(=O)c1cccc(C(=O)/C=C2/N(C)c3ccccc3C2(C)C)c1 | 2% | 5 | -5.7 | 2 | 4
O=C(Nc1cccc(-c2nn[nH]n2)c1)c1csc2c1CCCC2 | . | . | 1.4 | -4 | .
Cn1ncc2c(NNC(=O)Cc3ccccc3)ncnc21 | 0% | -7 | -3.1 | 6 | -22
O=S(=O)(c1cccs1)N1CCN(CC(O)COc2cc(Cl)ccc2Cl)CC1 (configuration not stated) | 6% | -11 | . | 1 | -47
CCSc1nnc(NC(=O)c2ccccn2)s1 | 0.32µM* | -24 | 0.1 | 90 | -33
Cc1cccc(C(=O)NC(=S)Nc2ccc3[nH]c(=O)[nH]c3c2)c1 | -7% | -3 | 0.5 | 1 | .
O=c1c2c(nc3nc(NCc4cccc(Cl)c4)[nH]n13)CCC2 | 3% | 5 | -1.3 | 60 | .
O=C(O)CCNC(=O)OCC1c2ccccc2-c2ccccc21 | . | . | -3.7 | 5 | .
CC(C)(C)NC(=O)/C=C/c1cccs1 | 3% | 3 | 0.0 | 1 | .
CCOC(=O)N1CCN(C(=O)CSCC(=O)Nc2nc(-c3ccc(OC)cc3)cs2)CC1 | -5% | 11 | -1.1 | ? | -31
O=C(NCC12CC3CC(CC(C3)C1)C2)c1cc2n(n1)C(C(F)(F)F)CC(c1ccco1)N2 (configuration not stated) | . | -20 | -2.6 | 17 | -18
Cc1nc2cc(C(=O)OCC(=O)NC34CC5CC(CC(C5)C3)C4)ccc2n1-c1ccccc1 | 7.9µM* | -8 | 15 | 99 | -25
O=C(CSc1cccc[n+]1[O-])Nc1ccc(N2CCOCC2)cc1 | 1% | 7 | -5.9 | 2 | .
CCOc1cccc(N2CCN(CCNC(=O)Nc3ccc(C)cc3)CC2)c1C | . | . | 0.3 | 13 | .
NNC(=O)c1ccc(Cn2cc(Cl)cn2)o1 | 0% | . | -3.1 | -8 | .
CC(C)CCN1C(Nc2ccccc2)=NC[C@@H]1C | . | . | -0.2 | -4 | .
CSc1ccccc1NC(=O)c1ccc([N+](=O)[O-])cc1 | 5% | -3 | 0.0 | 9 | .
COc1cccc(CN(C)C(=O)c2cccc(S(=O)(=O)NCc3ccccc3)c2)c1OC | . | . | 0.2 | -3 | .
CCOC(=O)c1sc(NC(=O)CSc2ncn(-c3ccccc3)n2)nc1C | -5% | -1 | -0.6 | 2 | -40
O=C(Cn1cc(S(=O)(=O)Cc2ccccc2F)c2ccccc21)N1CCOCC1 | . | . | 1.0 | -2 | .
O=C(N/N=C/c1cc([N+](=O)[O-])ccc1Cl)c1ccc2nc[nH]c2c1 | -3% | -3 | 4.3 | 9 | -28
O=C(c1ccc(NS(=O)(=O)c2ccccc2)cc1)N1CCN(Cc2ccc3c(c2)OCO3)CC1 | 8% | 3 | 0.6 | 4 | -15
CC(=O)Nc1ccc(NC(=O)CSc2n[nH]c(-c3cccs3)n2)cc1 | . | . | 2.9 | -3 | .
COc1ccc(NC(=O)c2cn(-c3ccccc3)nc2-c2ccncc2)cc1 | 11% | 12 | 4.1 | -9 | .
CCCNCc1cc(OC)c(OCC(=O)Nc2ccccc2)cc1Br | 1% | -5 | -1.3 | -8 | .
